From PubChem
2A StopGo – lowers the luciferase signal of an FMDV 2A StopGo reporter; Potency, µM (series often up to 57.9 µM), for the others: at the highest dose signal change, negative = less light; AID 1159524; 410,000 tested, 1.2% active; human cells with a luciferase reporter of 2A StopGo recoding; control for the full effect not named in the record; active = well fitted falling curve with a large enough effect; inconclusive = small, poorly fitted or top-dose-only effect; inactive = no such curve, though single readings can be large or run the other way; tested in HEK293T cells; further: on the % scale 0 is the no-effect control and ±100 the full control effect; nearly all actives have a fitted effect of over 45% in size; luciferase light after 4 h
Lassa entry inh – inhibitors of Lassa virus binding or cell entry; Lassa virus pseudotype entry inhibition, cell reporter; control for the full effect not named in the record; Potency, µM (doses to about 37.9 µM), for the others: top-dose activity change, negative = inhibition, most hits filed as inhibitors; 300,000 tested, 1.2% active; active means well fitted inhibition curve with a large enough effect; inconclusive means small, poorly fitted or top-dose-only effect, or effect the other way; inactive means flat fitted curve, though single readings scatter; tested in HEK293 cells; further: on the % scale 0 is the no-effect control and ±100 the full control effect; nearly all actives have a fitted effect of over 50% in size; luciferase read-out
NS1 function inh – influenza NS1 inhibition; S. cerevisiae slowed by influenza A NS1, growth recovery by OD600; AID 2326; Potency, µM (top dose mostly 46.1 µM), for inactives: top-dose activity, positive = more growth; 270,000 tested, 0.4% active; further: actives are rising curves; nearly all actives have a fitted effect of over 50% in size
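Growth recovery, yeast-based: influenza A NS1 expressed in S. cerevisiae causes slow growth, and suppressors are detected by OD600. The parent strain without NS1 is used as positive control.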
Marburg entry inh – inhibitors of Marburg virus binding or cell entry. Marburg virus pseudotyped entry inhibition, cell reporter; control for the full effect not named in the record; about a third of the inactives were read at about 46 µM. Potency, µM (top dose mostly 37.8 µM), inactives show top-dose activity change, negative = inhibition, actives largely listed as inhibitors. 300,000 tested, 1.8% active. AID 540276; active = well fitted inhibition curve with a large enough effect; inconclusive = small, poorly fitted or top-dose-only effect, or effect the other way; inactive = flat fitted curve, though single readings scatter; tested in HEK293 cells; about a fifth of its hits are not listed in these tables; further: on the % scale 0 is the no-effect control and ±100 the full control effect; luciferase read-out
RE007 growth inh – less growth of the S. pombe RE007 Vpr strain. Potency, µM (top dose mostly 92.2 µM), for inactives: at the highest dose activity change, negative = less growth. S. pombe RE007 Vpr strain, BacTiter-Glo ATP luminescence, 24 h; control for the full effect not named in the record. 360,000 tested, 0.21% active. AID 651644; active = well fitted falling curve with a large enough effect; inconclusive = small, poorly fitted or top-dose-only effect; inactive = no such curve, though single readings can be large or run the other way;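 further: on the % scale 0 is the no-effect control and ±100 the full control effect; nearly all actives have a fitted effect of over 50% in size; the assay follows cell death caused by Vpr and the record does not say whether a fall means rescue or toxicity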
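Fission yeast strain RE007, carrying one chromosomally integrated HIV-1 vpr copy, was seeded at OD 0.01 in PMG+AL medium with 23 nL pinned compound. After 24 h at 30 °C and 99% humidity, viability was read by BacTiter-Glo luminescence.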
Cruzain Triton – blocks cruzain activity in presence of Triton detergent; P25779; purified cruzain, Z-FR-AMC fluorescence, 0.01% Triton; Potency, µM, inactives show max response, negative = inhibition, actives largely listed as inhibitors; 200,000 tested, 0.43% active; active means well fitted curve in the direction sought with a large enough effect; inconclusive means small, poorly fitted or top-dose-only effect, or another doubt; inactive means no such curve, though single readings can be large; an effect the other way counts as inactive or inconclusive;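 further: plate controls were neutral wells for no effect and buffer without enzyme for full effect; nearly all actives have a fitted effect of over 40% in size; top concentration of the series not given in the record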
Target sequence (P25779 123-467 limits assumed): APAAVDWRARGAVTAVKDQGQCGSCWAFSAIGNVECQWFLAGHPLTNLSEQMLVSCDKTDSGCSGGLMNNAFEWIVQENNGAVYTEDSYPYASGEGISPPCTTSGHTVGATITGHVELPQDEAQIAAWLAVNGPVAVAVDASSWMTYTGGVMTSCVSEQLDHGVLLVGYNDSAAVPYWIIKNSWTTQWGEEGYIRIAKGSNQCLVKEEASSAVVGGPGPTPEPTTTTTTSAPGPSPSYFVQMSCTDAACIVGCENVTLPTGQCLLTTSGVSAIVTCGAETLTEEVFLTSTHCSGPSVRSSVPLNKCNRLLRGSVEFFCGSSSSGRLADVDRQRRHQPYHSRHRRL
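Cruzain (1.5 nM) preincubated 15 min at RT with compound in 100 mM sodium acetate pH 5.5, 5 mM DTT, 0.01% Triton X-100. Reaction started with 2 uM Z-FR-AMC; AMC fluorescence (ex 360/em 450 nm) change over 60 s gave rate.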
Cruzain noTriton – blocks cruzain activity in detergent-free assay | P25779 | purified cruzain, Z-FR-AMC fluorescence, no detergent | Potency, µM, for the others: max response, negative = inhibition, actives largely listed as inhibitors | 200,000 tested, 2.3% active; active means well fitted curve in the direction sought with a large enough effect; inconclusive means small, poorly fitted or top-dose-only effect, or another doubt; inactive means no such curve, though single readings can be large; an effect the other way counts as inactive or inconclusive;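 further: plate controls were enzyme without inhibitor for no effect and buffer without enzyme for full effect; nearly all actives have a fitted effect of over 40% in size; top concentration of the series not given in the record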
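Purified cruzain at 1.5 nM, pre-incubated 15 min with compound at room temperature in 100 mM sodium acetate pH 5.5, 5 mM DTT, 0.00005% Triton X-100. Reaction started with 2 uM Z-FR-AMC; AMC fluorescence increase over 60 s gives rate.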
SARS PLpro yeast – SARS-CoV PLP inhibition in yeast; Potency, µM (series often up to 32.9 µM), for inactives: at the top dose activity, positive = growth rescue; S. cerevisiae expressing SARS-CoV PLpro, growth rescue; control for the full effect not named in the record; 330,000 tested, 0.19% active; further: 0% is about no effect; nearly all actives have a fitted effect of over 55% in size; growth read by luminescence after 48 h
Numbers without * were called inactive; ? = inconclusive; / = not tested or not shown; & = joins results of further samples; [ ] = dose if it differs, or a comment. Unless noted, the call rests on the fitted dose curve; in most records, active means well fitted rising curve with a large enough effect; inconclusive means small, poorly fitted or top-dose-only effect; inactive means no such curve, though single readings can be large or run the other way. Potency means the concentration at half of the fitted maximal effect.

SMILES	Cruzain Triton	Lassa entry inh	SARS PLpro yeast	RE007 growth inh	Cruzain noTriton	2A StopGo	NS1 function inh	Marburg entry inh
CCOP(=O)(OCC)c1nc(-c2ccc(Br)cc2)oc1N1CCCCC1	/	/	-2%	22%	/	?	5%	/
CC(=O)NC(Cc1cccc(F)c1)C(=O)NC1CCN(C(=O)Nc2ccc(C)cc2)CC1 (stereo not drawn)	/	?	1%	6%	/	-5%	-1%	11%[46.1 µM]
CCCCCn1c(=O)[nH]c2cc(C(=O)NCc3ccccc3)ccc2c1=O	-1.7%	2%[46.1 µM]	/	/	-6%	0%	/	-4%[46.1 µM]
O=C(Nc1ccc2c(c1)OCCO2)C1CCN(c2cnccn2)CC1	-3.0%	3%	-2%	-11%	-9%	11%	-3%	0%
COc1ccc(N(CC(=O)N2CCN(c3ccc(F)cc3)CC2)S(=O)(=O)c2c(C)nn(C)c2C)cc1	-3.0%	-11%[46.1 µM]	/	/	?	-8%	/	-11%[46.1 µM]
COC(=O)c1ccc(-c2nc(-c3ccc(Br)o3)no2)cc1	4.7%	/	6%	9%	-7%	49%[activator]	0%	/
CCc1ccc(CNc2ccc(N3CCN(C(C)=O)CC3)cc2)cc1	4.2%	?	-1%	4%	?	-24%	9%	-24%&0%
COc1ccc(-c2cc(CCCC(=O)NCc3ccccn3)no2)cc1	-3.4%	/	-7%	7%	2%	0%	-8%	/
c1ccc(OCc2nn3c(-c4ccccn4)nnc3s2)cc1	2.1%	12%	-2%	9%	5%	59%[activator]	-11%	?
Cc1csc2nc(COC(=O)CNC(=O)c3ccc(F)cc3)cc(=O)n12	-11%	1%[46.1 µM]	/	/	-14%	-2%	/	/
COc1ccc(OC)c2sc(N3CCc4ccccc4C3)nc12	/	-2%	-10%	10%	/	27%	/	-30%[46.1 µM]
c1ccc(-c2csc3nnc(SCc4ccc5c(c4)OCCO5)n23)cc1	-3.5%	-13%	-21%	2%	5%	-5%	-40%	?
COc1ccc(/C=N/NC(=O)c2cccc(C(=O)N/N=C/c3ccc(OC)c(OC)c3)n2)cc1OC	/	/	-1%	-15%	/	-28%	1%	/
Brc1ccc(-c2nnc(SCCC3OCCCO3)o2)cc1	-1.1%	-20%	0%	-19%	8%	28%	-8%	13%
COc1cc(NC(=O)N2CCC3(CC2)Nc2ccccc2-n2cccc23)cc(OC)c1OC	-6.6%	-29%[46.1 µM]	/	/	?	?	/	/
Cc1ccccc1Nc1ncnc(N)n1	/	-28%	6%	5%	/	15%	/	4%

Results in Marburg entry inh and SARS PLpro yeast, for some of the entries so far:
mol	Marburg entry inh	SARS PLpro yeast
c1ccc(-c2csc3nnc(SCc4ccc5c(c4)OCCO5)n23)cc1	?	-21%
c1ccc(OCc2nn3c(-c4ccccn4)nnc3s2)cc1	?	-2%

Next part
SMILES	Cruzain Triton	Lassa entry inh	SARS PLpro yeast	RE007 growth inh	Cruzain noTriton	2A StopGo	NS1 function inh	Marburg entry inh
COc1ccc(S(=O)(=O)N2CCCCC2)cc1NC(=O)CSc1nccn1C	/	-1%	1%	-20%	/	16%	/	-21%[46.1 µM]
COc1cccc(OCC(O)CNC(=O)c2oc3c(C)c(C)ccc3c2C)c1 (stereo not drawn)	/	-10%	-18%	11%	/	-22%	-36%	?
C[C@H](NS(=O)(=O)c1ccc(Cl)cc1)C(=O)OCC(=O)c1ccc[nH]1	/	/	0%	-14%	/	-17%	-80%	/
CCC(=O)NC(c1ccccc1)c1nc2ccccc2[nH]1 (stereo not drawn)	6.8%	?	5%	0%	0%	67%[activator]	-2%	25%
O=C(O)C1Cn2c(nc3c(c2=O)C2(CCCC2)Cc2ccccc2-3)S1 (stereo not drawn)	/	2%[46.1 µM]	1%	-2%	/	-23%	3%	-2%[46.1 µM]
Cc1ccc(NC(=O)c2ccc(C#CC3(O)CCCCC3)cc2)cc1C	0.7%	-9%	3%	16%	-4%	?	-2%	-2%
COc1cc(C(=O)O)nc2ccccc12	-1.4%	12%	-2%	9%	-7%	0%	-8%	18%
CCS(=O)(=O)N1CCCC(C(=O)NCc2ccc3c(c2)OCO3)C1 (stereo not drawn)	-4.5%	7%	0%	1%	-9%	4%	4%	-5%
CC(=O)C1=C(C)OC(N)=C(C#N)C1c1cccc([N+](=O)[O-])c1 (stereo not drawn)	/	23%	0%	1%	/	-28%	/	12%[46.1 µM]
COc1ccc(S(=O)(=O)c2nnn(-c3ccc(C(C)C)cc3)c2C)cc1	0.0%	6%[46.1 µM]	/	/	-12%	?	/	12%[46.1 µM]
COc1cc2cc(C(=O)N/N=C/c3cccc(OC)c3OC)[nH]c2cc1OC	/	-18%[46.1 µM]	0%	0%	/	-21%	-3%	?
Cn1c(=O)oc2cc(S(=O)(=O)NCCC(=O)N3CC=C(c4ccccc4)CC3)ccc21	-3.0%	0%	5%	-3%	10%	-15%	-4%	?
CCCn1c(N)c(N(CCOC)C(=O)c2cccc(C(F)(F)F)c2)c(=O)[nH]c1=O	/	26%[46.1 µM]	3%	-13%	/	-5%	7%	0%[46.1 µM]
CN(C(=O)CN1C(=O)/C(=C/c2ccccc2F)SC1=S)C1CCS(=O)(=O)C1 (stereo not drawn)	/	/	22%	6%	/	-9%	?	/
Cc1ccc(NC(=O)CSCC(=O)N(C)CC(=O)Nc2ccccc2C(F)(F)F)cc1	/	-5%	-6%	-3%	/	-16%	/	?
COc1cccc(NC(=O)c2ccc3c(c2)CCN3S(C)(=O)=O)c1	-0.9%	12%[46.1 µM]	-12%	-21%	-4%	29%&19%	4%	23%[46.1 µM]

Complete entries, looked up by structure. Values in the order: Cruzain Triton | Lassa entry inh | SARS PLpro yeast | RE007 growth inh | Cruzain noTriton | 2A StopGo | NS1 function inh | Marburg entry inh
`COc1cccc(NC(=O)c2ccc3c(c2)CCN3S(C)(=O)=O)c1` in the list: -0.9% | 12%[46.1 µM] | -12% | -21% | -4% | 29%&19% | 4% | 23%[46.1 µM]
`Cc1ccc(NC(=O)CSCC(=O)N(C)CC(=O)Nc2ccccc2C(F)(F)F)cc1` in the list: / | -5% | -6% | -3% | / | -16% | / | ?

Carrying on.
SMILES	Cruzain Triton	Lassa entry inh	SARS PLpro yeast	RE007 growth inh	Cruzain noTriton	2A StopGo	NS1 function inh	Marburg entry inh
COc1cc(NC(=O)c2ccc(-c3nc(CSc4ccccc4)c(C)o3)cc2)cc(OC)c1	2.3%	?	/	/	?	-3%	/	/
COc1cc(NC(=O)CN(C)S(=O)(=O)c2ccc3nc(C)sc3c2)cc(OC)c1	/	18%	2%	-3%	/	-23%	/	-19%[46.1 µM]
COc1ccccc1CC(=O)N1CCCc2cc(C)ccc21	/	/	-1%	-19%	/	3%	-8%	/
Cc1ccc(OCC(=O)Nc2ccc(-c3nc4ncccc4o3)cc2)cc1	-6.7%	19%	-1%	15%	?	0%	2%	7%
Cc1ccc(CCc2nnc(SCC(=O)Nc3cc(Cl)ccc3Cl)n2-c2ccccc2)o1	-4.3%	?	6%	30%	12%	-26%	?	?
Cc1oc(-c2ccc(Cl)cc2)nc1CSCC(=O)NCCCN1CCOCC1	2.3%	-5%	8%	-5%	-11%	?	-7%	-19%
Cc1cccc(-n2ncc(C(=O)N3CCc4ccccc4C3)c2C2CCN(C(=O)OC(C)(C)C)CC2)c1	2.2%	?	/	/	-15%	2µM*	/	/
Cc1[nH]c2c(C)cccc2c1CCNS(=O)(=O)c1cccc([N+](=O)[O-])c1	-15%	6%	-3%	-1%	-7%	-19%	15%	-20%
NC(=O)c1ccccc1NC(=O)Nc1ccccc1Cl	/	17%	0%	-1%	/	24%	/	11%[46.1 µM]
CCCSc1nnc2c(n1)OC(c1ccc(Br)s1)Nc1ccccc1-2 (stereo not drawn)	-6.1%	23%[46.1 µM]	/	/	6%	23%	/	?
COc1ccc(CCN2CC(C(=O)NCc3cc(C)on3)CCC2=O)cc1 (stereo not drawn)	/	/	4%	5%	/	3%	-1%	/
CC(C)=CCN1CCN(Cc2c[nH]c3ccccc23)CC1CCO (stereo not drawn)	/	12%	3%	0%	/	-16%	28%	-1%
CCOC(=O)c1cnc(SCC(C)C)nc1N	0.4%	0%	8%	-4%	-11%	54%	-47%	-7%
O=c1cc(CSc2ncn[nH]2)[nH]c2ccc(F)cc12	1.3%	?	/	/	2%	-7%	/	/
Cc1ccc2oc(C(=O)NCc3ccc(S(N)(=O)=O)cc3)cc(=O)c2c1	/	/	-1%	3%	/	-2%	5%	-3%
OCCN(Cc1ccccc1)Cc1cccc(Cl)c1Cl	-0.3%	-17%	2%	0%	1%	/	3%	-14%
COc1ccccc1OCCc1nnc(N)s1	4.0%	1%	-3%	6%	-3%	-4%	?	25%
CCOC(=O)c1sc(NC(=O)c2ccc(CC)s2)nc1C	3.8%	?	0%	11%	16µM*	51%[activator]	-1%	?
CC1=C(C(=O)OCc2ccc(C)cc2)C(c2ccccc2F)CC(=O)N1 (stereo not drawn)	-5.2%	?	/	/	-3%	0%	/	?
COc1ccc(N2CCN(C(C)C(=O)N3CCCC3)CC2)cc1 (stereo not drawn)	/	10%	-2%	-3%	/	1%	0%	-29%[46.1 µM]
Cc1noc(Cn2c(=O)c3ccccc3n(CC(=O)Nc3cc(Cl)ccc3C)c2=O)n1	-2.3%	9%[46.1 µM]	/	/	10%	-26%	/	/
C=CCN=C1N[C@@H](c2ccccc2)C(C(=O)OC)=C(C)N1CCOC	/	/	6%&-5%	-16%	/	0%	8%&-11%	/
CNC(=S)N1CCC(NC(=O)C(Cc2ccc(F)cc2)NC(C)=O)CC1 (stereo not drawn)	/	8%[46.1 µM]	0%	10%	/	7%	/	21%[46.1 µM]
COc1cc(NC(=O)n2ncc3cc(Cl)ccc32)cc(OC)c1	/	/	-3%	-10%	/	48%[activator]	0%	/
CNC(=O)c1[nH]cnc1C(=O)Nc1ccccc1OC	-1.6%	-11%	-4%	-3%	5%	-22%	-3%	-13%
